VCAM-1 imaging: inhibitors of TNFa-induced VCAM-1 surface display, imaging, high-content imaging, pooled HUVEC, TNFa stimulus (AID 456) | HUVEC TNFa-induced VCAM-1 surface expression, immunofluorescence imaging; numbers were filed only for top-ranked candidate wells | inhibition, % at 5 µM, or IC50 in µM where a hit was titrated | 0.2% of 10,000 active;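 active = top tenth filtered wells with inhibition above zero that passed visual or statistical confirmation; inactive = the rest, including hits rejected on review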;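 also: 0% = stimulated vehicle wells and 100% = unstimulated cells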
FPRL1 ligand: human FPRL1 ligands by binding competition, primary screen, cell-based, FPR counter-screen, flow cytometry; N-formyl peptide receptor 2 (Homo sapiens), P25090; FPRL1-expressing cells, fluorescent ligand binding inhibition; inhibition, %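 (tested at 6.7 µM)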; 0.3% of 24,000 active; AID 441, 2006;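 also: 0% = buffer alone and 100% = receptor blocker peptide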
Target sequence (P25090 whole entry, looked up): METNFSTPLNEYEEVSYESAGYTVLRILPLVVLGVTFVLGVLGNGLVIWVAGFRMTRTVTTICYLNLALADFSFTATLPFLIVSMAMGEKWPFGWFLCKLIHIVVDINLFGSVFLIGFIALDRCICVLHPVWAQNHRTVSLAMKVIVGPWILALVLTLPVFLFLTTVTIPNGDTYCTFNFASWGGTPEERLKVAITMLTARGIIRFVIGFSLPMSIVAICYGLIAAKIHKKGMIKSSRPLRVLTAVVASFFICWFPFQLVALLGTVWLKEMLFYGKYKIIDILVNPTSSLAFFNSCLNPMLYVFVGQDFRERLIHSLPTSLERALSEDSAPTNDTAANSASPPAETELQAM
VCAM-1 augmentation: enhancers of VCAM-1 display on endothelial cells, imaging, high-content imaging, pooled HUVEC, TNFa stimulus (AID 457); 0.2% of 10,000 active; calls only; Pooled HUVEC, TNFa-induced VCAM-1 immunofluorescence imaging; hits of this screen are not shown here;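 active = a top-ranked rise in VCAM-1 staining upheld on image or statistical review; inactive = the rest, including candidates rejected on review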;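 also: compounds tested at 5 µM in the well; cells exposed to compound for 24 hours before fixing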
FPR binder: human FPR ligands by binding competition, primary screen, cell-based, FPRL1 counter-screen, flow cytometry. FPR-expressing cells, fluorescent ligand binding. 0.74% of 24,000 active. fMet-Leu-Phe receptor (Homo sapiens), P21462. inhibition, %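 (tested at 6.7 µM)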;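 also: 0% = buffer wells and 100% = receptor blocker peptide wells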
Target sequence (P21462 whole entry, looked up): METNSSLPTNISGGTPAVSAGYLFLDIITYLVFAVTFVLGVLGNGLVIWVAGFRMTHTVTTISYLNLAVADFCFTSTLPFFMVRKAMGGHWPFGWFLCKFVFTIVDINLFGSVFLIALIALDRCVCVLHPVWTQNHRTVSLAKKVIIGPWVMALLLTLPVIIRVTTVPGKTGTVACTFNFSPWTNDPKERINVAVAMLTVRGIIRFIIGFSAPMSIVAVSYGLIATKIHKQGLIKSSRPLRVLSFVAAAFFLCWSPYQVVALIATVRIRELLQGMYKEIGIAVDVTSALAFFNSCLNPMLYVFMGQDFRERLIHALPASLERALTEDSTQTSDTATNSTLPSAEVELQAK
VCAM-1 down: inhibitors of TNFa-induced VCAM-1 surface display, cell-based, plate reader, pooled HUVEC, TNFa stimulus (AID 454) | 0.2% of 10,000 active | inhibition, % at 5 µM | HUVEC TNFa-induced VCAM-1 surface immunofluorescence, plate reader; numbers were filed only for top-ranked candidate wells;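 active = compound among top-ranked inhibitors of TNF-induced VCAM-1 adhesion protein staining, with the hit upheld by image or statistical review; inactive = the rest, including hits rejected on review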;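 also: 0% = TNFa with vehicle and 100% = cells without TNFa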
* hit, by the source's call; i = inactive; . = not tested or not shown.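 The calls were made as follows, unless noted: active = mean above 30%; inconclusive = self-fluorescent; inactive = the rest.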 A portion of the library; the hit share may differ from the screen's.

SMILES	VCAM-1 imaging	FPRL1 ligand	VCAM-1 augmentation	FPR binder	VCAM-1 down
CCN1CCN(S(=O)(=O)Cc2ccccc2)CC1	i	2	i	0	i
CN(C)C(=O)N1CCCC(C(=O)NCc2ccc(F)cc2Cl)C1 (stereo unspecified)	.	-2	.	-4	.
CC(C)CC(=O)Nc1ccc(Nc2ccccc2)cc1	.	-1	.	-3	.
O=C(CCCCn1c(=O)[nH]c2ccccc2c1=O)N1CCN(c2ncccn2)CC1	.	0	.	3	.
CCCc1[nH]nc2c1C(c1ccc(OC(=O)N3CCOCC3)c(OC)c1)C(C#N)=C(N)O2 (stereo unspecified)	.	4	.	0	.
O=C(NCCCN1CCC(Cc2ccccc2)CC1)C1CC(=O)N(C2CCCC2)C1 (stereo unspecified)	.	3	.	-5	.
Cc1ccc(NC(=O)NC(=O)N(c2ccccc2)S(C)(=O)=O)cc1	.	0	.	0	.
O=C(COC(=O)C12CC3CC(CC(O)(C3)C1)C2)N1CCN(S(=O)(=O)c2ccc(Cl)cc2)CC1	i	2	i	-3	i
COC(=O)C1CCN(C(=O)CN2C(=O)NC(CCc3ccccc3)C2=O)CC1 (stereo unspecified)	i	4	i	-7	i
O=c1oc2ccccc2cc1C1=Nn2c(nnc2-c2cccnc2)SC1	.	7	.	-2	.
COc1ccc(NC(=O)c2oc3ccccc3c2NC(=O)c2ccco2)cc1	i	-1	i	10	i
COc1ccc(CN(C(=O)c2ccccc2OC)C2CCS(=O)(=O)C2)cc1 (stereo unspecified)	i	51*	i	51*	i
COc1cccc2c1C(=O)c1c(O)c3c(c(O)c1C2=O)C[C@@](O)(C(=O)CO)C[C@@H]3O[C@H]1C[C@H](N)[C@H](O)[C@H](C)O1	i	18	i	-17	i
CN(C#N)c1nc(N2CCOCC2)nc(N2CCOCC2)n1	i	2	i	1	i
Cc1cc(NC(=O)CSc2nccn2-c2ccc(Cl)cc2)no1	i	4	i	-4	i
N#Cc1c[nH]n2c(=O)c3c(nc12)CCCC3	.	-2	.	-1	.
O=C(CCCn1c(=S)[nH]c2cc3c(cc2c1=O)OCO3)N1CCN(c2ccccn2)CC1	.	-5	.	7	.
COc1ccccc1NC(=O)NC1(C(=O)N2CCC(O)CC2)CCCCC1	i	9	i	-4	i
COC(=O)CCC(=O)Nc1ccc(OC)cc1	i	-6	i	-8	i
Cc1nc2ccccc2c2oc(C(=O)NCc3ccccn3)cc12	i	-2	i	0	i
Cc1ccc(Cn2cnc3c(nnn3Cc3ccc(Cl)cc3)c2=O)cc1	.	4	.	7	.
Cc1c(NC(=O)c2ccc(Br)o2)c(=O)n(-c2ccccc2)n1C	i	-6	i	-5	i
O=C(CCS(=O)(=O)c1cccc2nsnc12)NCc1ccccc1	i	0	i	-7	i
Cc1ccccc1C1CC(c2ccccc2OC(F)F)Nc2ncnn21 (stereo unspecified)	.	6	.	6	.
O=C(Cn1cc2c(n1)CCCC2)NCC1CCCO1 (stereo unspecified)	.	6	.	6	.
Following part
SMILES	VCAM-1 imaging	FPRL1 ligand	VCAM-1 augmentation	FPR binder	VCAM-1 down
O=C(Nc1ccccc1C(=O)N1CCCC1)c1cccc(S(=O)(=O)N2CCCCCC2)c1	.	4	.	9	.
Cc1[nH]n(C(C)(C)C)c(=O)c1Sc1ccccc1	.	8	.	-4	.
Cc1n[nH]c(C)c1S(=O)(=O)N1CCCC(C(=O)Nc2nccs2)C1 (stereo unspecified)	.	-4	.	4	.
Oc1ccccc1-c1nnc(COc2ccccc2)o1	.	3	.	-2	.
CC(=O)Nc1cccc(NC(=O)C2CCCN2C(=O)Nc2ccc(C)cc2)c1 (stereo unspecified)	i	5	i	20	i
Cc1ccc(C(=O)/C=C/Nc2cccc(O)c2)cc1	i	-15	i	3	i
CN(C)C(=O)N1CCCC(C(=O)NCc2ccccc2Cl)C1 (stereo unspecified)	.	-1	.	2	.
COc1ccc(OCC(=O)N2CC3(C)CC2CC(C)(C)C3)cc1 (stereo unspecified)	i	-1	i	-2	i
CNC(=O)CN1C(=O)CSc2ncccc21	.	4	.	-2	.
NC(=O)C1CCN(CC(=O)N2c3ccccc3CCc3ccccc32)CC1	i	6	i	8	i
O=C(O)c1ccc(NC(=O)c2cccs2)cc1	i	0	i	6	i
Cc1cc(N2CCN(C3CCCC3)CC2)n2c(nc3ccccc32)c1C#N	i	1	i	8	i
CCOCCCn1c(=NC(C)=O)c(C(=O)OCC)cc2c(=O)n3ccccc3nc21	i	5	i	2	i
Cc1sc(NC(=O)C2CCCCC2C(=O)O)c(C(N)=O)c1C (stereo unspecified)	.	-4	.	-12	.
CCOc1ccccc1N(CC(=O)N1CCOCC1)S(=O)(=O)c1ccccc1	i	6	i	-4	i
CCOC(=O)CSc1nnc(CNC(=O)c2ccco2)n1-c1ccc(F)cc1	.	9	.	-5	.
CCOc1ccc2c(=O)c(-c3ccc4c(c3)OCCCO4)c(C)oc2c1	.	-9	.	-4	.
COc1ccc2oc(C(=O)CCC(=O)O)c(N)c2c1	.	-1	.	-4	.
COc1ccc(C)cc1NS(=O)(=O)c1cccc2nonc12	.	0	.	0	.
Cc1cc(C)n2nc(SCC(=O)NCc3ccco3)nc2n1	.	-14	.	1	.
Cn1nc(CC(=O)Nc2ncc(Br)s2)c2ccccc2c1=O	.	2	.	2	.
COc1ccc(-c2c3c(=O)n(C)c(=O)n(C)c3cn2-c2cccc(OC)c2)cc1	i	-1	i	-5	i
CC(C)Oc1ccc2c(=O)c(-c3ccccc3)coc2c1	i	-3	i	5	i
CCC1(C)Cc2c(C#N)c(N)n(-c3ccccc3)c(=O)c2CO1 (stereo unspecified)	i	3	i	-2	i
COC(=O)c1cccc(Nc2cc(C)nc(-c3ccccc3O)n2)c1	i	-4	i	-2	i

Exported with values under each structure: part of the list above.
Under each structure: VCAM-1 imaging, FPRL1 ligand, VCAM-1 augmentation, FPR binder, VCAM-1 down
- CN(C)C(=O)N1CCCC(C(=O)NCc2ccccc2Cl)C1 (stereo unspecified)
    ., -1, ., 2, .
- COc1ccc(OCC(=O)N2CC3(C)CC2CC(C)(C)C3)cc1 (stereo unspecified)
    i, -1, i, -2, i
- CNC(=O)CN1C(=O)CSc2ncccc21
    ., 4, ., -2, .
- NC(=O)C1CCN(CC(=O)N2c3ccccc3CCc3ccccc32)CC1
    i, 6, i, 8, i
- O=C(O)c1ccc(NC(=O)c2cccs2)cc1
    i, 0, i, 6, i
- Cc1cc(N2CCN(C3CCCC3)CC2)n2c(nc3ccccc32)c1C#N
    i, 1, i, 8, i
- CCOCCCn1c(=NC(C)=O)c(C(=O)OCC)cc2c(=O)n3ccccc3nc21
    i, 5, i, 2, i
- Cc1sc(NC(=O)C2CCCCC2C(=O)O)c(C(N)=O)c1C (stereo unspecified)
    ., -4, ., -12, .
- CCOc1ccccc1N(CC(=O)N1CCOCC1)S(=O)(=O)c1ccccc1
    i, 6, i, -4, i
- CCOC(=O)CSc1nnc(CNC(=O)c2ccco2)n1-c1ccc(F)cc1
    ., 9, ., -5, .
- CCOc1ccc2c(=O)c(-c3ccc4c(c3)OCCCO4)c(C)oc2c1
    ., -9, ., -4, .
- COc1ccc2oc(C(=O)CCC(=O)O)c(N)c2c1
    ., -1, ., -4, .
- COc1ccc(C)cc1NS(=O)(=O)c1cccc2nonc12
    ., 0, ., 0, .
- Cc1cc(C)n2nc(SCC(=O)NCc3ccco3)nc2n1
    ., -14, ., 1, .
- Cn1nc(CC(=O)Nc2ncc(Br)s2)c2ccccc2c1=O
    ., 2, ., 2, .

(next part)
SMILES	VCAM-1 imaging	FPRL1 ligand	VCAM-1 augmentation	FPR binder	VCAM-1 down
COCCN1C(=O)C(=O)/C(=C(/O)c2ccc3c(c2)OCCO3)C1c1ccc(C(=O)OC)cc1 (stereo unspecified)	.	0	.	-15	.
CCCn1c(CNC(=O)Cc2ccccc2)nc2ccccc21	.	-5	.	1	.
Cc1ccccc1Cc1c(C)nc2nc(SCC(=O)NCc3ccco3)nn2c1C	.	-2	.	0	.
Cc1ccc(CCNC(=O)C2CCN(C(=O)N(C)C)CC2)cc1	.	-4	.	-7	.
CC(=O)N1CCc2cc(C(=O)CN3CCC(C)CC3)ccc21	.	0	.	0	.
COc1ccc(-n2c(=O)c3ccccc3n(CC(=O)NC3CCCC3)c2=O)c(OC)c1	.	10	.	8	.
O=C(CCCCCn1c(=O)[nH]c2ccccc2c1=O)NCCCN1CCN(c2ccccc2F)CC1	.	4	.	-5	.
CCOc1ccc(N2C(=O)c3cccnc3C2Nc2ccc(OC)cc2)cc1 (stereo unspecified)	.	22	.	20	.
O=C(CCCOc1ccccc1)N1CCN(c2ccccn2)CC1	i	-1	i	-4	i
CCN(CC)CCn1c(=N)n(CCO)c2ccccc21	i	-5	i	2	i
CS(=O)(=O)Nc1ccc(C(=O)NCc2ccco2)cc1	i	1	i	-4	i
O=C(CCSCCc1ccccn1)Nc1nccs1	.	0	.	3	.
COc1ccc(OC)c(C2=NOC(C(=O)NCc3ccccn3)C2)c1 (stereo unspecified)	.	-3	.	1	.
CC12CN3CC(C)(CN(C1)C3c1ccc(Cl)cc1Cl)C2=O (stereo unspecified)	i	7	i	-2	i
Cc1ccc2c(c1)NC(=O)C(N1CCOCC1)(C(F)(F)F)O2 (stereo unspecified)	.	-5	.	-2	.
O=C(O)C1CC(=O)N(c2ccc(OCc3ccccc3Cl)cc2)C1 (stereo unspecified)	i	-3	i	2	i
Cc1cccn2c(=O)c3cc(C(=O)NCc4ccco4)c(=N)n(CCOCCO)c3nc12	.	0	.	-2	.
Cc1n[nH]c(C)c1S(=O)(=O)N1CCCCCC1	i	1	i	-3	i
COC(=O)Cc1[nH]nc2c1C(C1C=CCCC1)C(C#N)=C(N)O2 (stereo unspecified)	i	19	i	15	i
CCN1CCN(CCCNC(=O)c2csc3c2CCCCC3)CC1	.	-5	.	-4	.
Cc1cccc(CCNC(=O)C2CCCN(S(=O)(=O)c3cccc4nsnc34)C2)c1 (stereo unspecified)	.	2	.	-8	.
Cc1ccccc1CNc1nc(N)n(-c2ccccc2)n1	.	-3	.	-8	.
CCOC(=O)N1CCN(C(=O)c2cc3cc(Br)ccc3oc2=O)CC1	.	0	.	-5	.
COC(=O)c1c(NC(=O)CCc2ccc(C)o2)sc(C)c1C	i	2	i	14	i
CCCN(CCC)CCNC(=O)CS(=O)Cc1nc(-c2ccc(C)cc2)oc1C (stereo unspecified)	.	2	.	6	.
(continued)
SMILES	VCAM-1 imaging	FPRL1 ligand	VCAM-1 augmentation	FPR binder	VCAM-1 down
CCOC(=O)CC1=C(C#N)C(c2cccnc2)C(C(=O)OCC)=C(N)O1 (stereo unspecified)	.	5	.	10	.
CCc1c(C(=O)Nc2cc(C)ccc2OC)[nH]c(C)c1C(C)=O	i	-1	i	10	79
COc1cc(NC(=O)c2cc3c(C)nc4ccccc4c3o2)cc(OC)c1OC	.	3	.	4	.
CCOc1ccc(N2C(=O)c3cccnc3C2Nc2ccc(F)cc2)cc1 (stereo unspecified)	.	6	.	2	.
CCN(CC)CCCNC1CCS(=O)(=O)C1 (stereo unspecified)	i	4	i	5	i
CCOC(=O)N1CCC(NC(=O)Cn2ncc3c4ccccc4n(C)c3c2=O)CC1	i	0	i	-1	i
Cc1cccc(NCN2C(=O)c3ccncc3C2=O)n1	.	2	.	-4	.
CCN(C(=O)COc1cc(=O)n(CC)c2ccccc12)c1cccc(Cl)c1	.	-4	.	4	.
CCn1c(SCC(=O)Nc2ccccc2N2CCCCC2)nc2c1c(=O)n(C)c(=O)n2C	i	-14	i	2	i
COC(=O)C1=C(C)N(c2ccc(C(=O)OC)cc2)C(=O)C1	i	-5	i	-2	i
c1ccc2c(c1)CCN(CCCNc1nc3ccccc3n3cnnc13)C2	.	-8	.	-3	.
COc1ccc(-n2c(COc3cccc(C)c3)nnc2SCC(=O)NCc2ccco2)cc1	i	-1	i	-4	i
Cc1nnc(SCC(=O)NC(C)(C)C)n1CCc1ccccc1	i	2	i	-3	i
O=C(CN1C(=O)NC2(CCCCC2)C1=O)Nc1ccc(S(=O)(=O)N2CCOCC2)cc1	i	5	i	6	i
CN(C)c1nc(OCCOC(=O)Nc2ccc(Cl)cc2Cl)nc(N(C)C)n1	i	-5	i	-1	i
COCCCN(Cc1ccccn1)S(=O)(=O)Cc1ccccc1	i	1	i	-6	i
O=C(NC1(C(=O)NC2CCCCC2)CCCCC1)c1ccc2c(c1)OCO2	i	-3	i	4	i
CCCCN(CCCNC(=O)c1c(C)cc(=O)oc1C)c1ccccc1	.	-3	.	10	.
Cc1cccn2cc(-c3ccccc3)nc12	i	-3	i	3	i
OC(Cn1cccn1)c1ccccc1 (stereo unspecified)	.	2	.	-4	.

Screening results from PubChem.
